Mtb H37Rv – Mycobacterium tuberculosis H37Rv growth inhibition, cell based, confirmatory dose response (AID 1949). hit rate 1.6% among 100,000. inhibition, % at 10 µg/mL; hits with a dose series show IC50 in µg/mL. most inactive calls were filed without a number and no value below 0 was filed;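 active means confirmed in a dose series; inconclusive means about 50% or more but not retested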;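 further: bacteria grown 7 days with compound before Alamar blue readout; 0% = untreated bacteria and 100% = reference antibiotic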
The depositor's hits bear a star; i = inactive; ? = inconclusive. Some of the compounds tested; rates above refer to the full screens.

structure	Mtb H37Rv
CCCn1nnc(NC(=O)c2cccc(F)c2)n1	i
COc1ccc(OCCCC(=O)Nc2cc(OC)c(Cl)cc2OC)cc1	i
Cc1cc(Cl)c(S(=O)(=O)NC(C(=O)O)C(C)C)cc1OCC(N)=O (stereo not drawn)	i
O=C(Nc1cccc2ncccc12)c1ccco1	i
CCOc1ccccc1N1CCN(C(=O)C2CCN(Cc3ccc(C)o3)CC2)CC1	i
CCOC(=O)N1CCN(CCC(=O)Nc2cccc(Cl)c2C)CC1	i
CCn1c(CC(C)(C)C)nc2ccccc21	i
Cn1c(Oc2ccc(-c3ccccc3)cc2)nc2c1c(=O)n(Cc1ccc(F)cc1)c(=O)n2C	i
COc1cccc(Cn2c(=S)[nH]c3ccccc3c2=O)c1	i
Cc1cc(OCC(=O)Nc2ccc(Cl)cc2)cc(C)c1Br	i
CCc1nc(SCC(=O)Nc2ccc(Br)cn2)n[nH]1	i
COc1cccc(OC)c1C(=O)Nc1cc(C)c(I)cc1C	3.8%
CC(C)(C)SCCNS(=O)(=O)c1ccc([N+](=O)[O-])cc1	i
COc1ccccc1CCNC(=O)c1csc2c1CCCC2	i
Cc1cccc(C)c1NC(=O)C/C(N)=N/O	i

Compounds from the list above containing bromine, in the order listed:
structure	Mtb H37Rv
Cc1cc(OCC(=O)Nc2ccc(Cl)cc2)cc(C)c1Br	i
CCc1nc(SCC(=O)Nc2ccc(Br)cn2)n[nH]1	i

(cont.)
structure	Mtb H37Rv
COc1ccc(N(C(C)C(=O)N2CCN(c3cccc(Cl)c3)CC2)S(C)(=O)=O)cc1 (stereo not drawn)	2.3%
C(=C\c1nn2c(Cc3ccccc3)nnc2s1)/c1cccs1	4.5%
COC(=O)Cc1c(C)c2cc(Cl)c(OCc3ccccc3Cl)cc2oc1=O	i
CC(C)(C)c1ccc(C(=O)Nc2nnc(-c3ccc(Cl)cc3)s2)cc1	0.5%
Cc1cccc(Nc2nc(-c3sc(N)nc3C)cs2)n1	39.0%
O=c1nc(/C=C/c2cccc3ccccc23)cc(C(F)(F)F)[nH]1	11.2%
Cn1c(SCC(=O)Nc2c(F)cc(F)cc2Br)nnc1-c1ccco1	i
CC1=NN(c2nc(-c3ccccc3)cc(-c3ccc(F)cc3)n2)C(=O)C1	i
CCN1CCN(c2c(N)cccc2Cl)CC1	i
c1ccc(-n2nnnc2Oc2cccc3cccnc23)cc1	5.68µg/mL*
Cc1cccc(C)c1OCC(=O)NC1CC1	i
COc1ccc(C2CC(=O)c3cnc(NCc4ccccc4)nc3C2)cc1 (stereo not drawn)	i
O=C(Cn1c(=O)oc2ccccc21)Nc1cc(Cl)ccc1Cl	i
CC1=NN(c2ccccc2)C(=O)C1(O)C1C(=O)c2ccccc2C1=O (stereo not drawn)	i
COC(=O)Cc1ccc(NC(=S)NCCc2ccccc2)cc1	i

Going on with the list:
structure	Mtb H37Rv
Cc1ccc(N(C)C(=O)Oc2ccc(OC(=O)N(C)c3ccc(C)cc3)cc2)cc1	i
CS(=O)(=O)N(CC(=O)Nc1ccc(F)cc1F)c1ccc(F)cc1	i
CCc1cc(C(=O)OC)c(NC(=S)NNC(=O)c2cc(Br)ccc2Cl)s1	i
CC(=O)c1ccc(NC(=O)c2ncn(-c3ccccc3)n2)cc1	0.7%
N#Cc1c(-c2ccccc2)cc(-c2cccc([N+](=O)[O-])c2)c(C#N)c1N	i
CCC(C)C(NC(=O)c1ccccc1NC(=O)c1ccccc1)C(=O)O (stereo not drawn)	i
O=C(CC(c1ccccc1)c1ccccc1)Nc1nnc(C2CCCCC2)s1	i
O=C(Nc1nnc(CCc2ccccc2)s1)C1CCCO1 (stereo not drawn)	i
CCOC(=O)c1c(NC(=O)CSc2nc3sc(C)c(C)c3c(=O)n2C)sc2c1CCCC2	i
O=C(CCCN1C(=O)c2ccccc2C1=O)Nc1ccc(Cl)c(C(F)(F)F)c1	i
COc1ccc(Cl)cc1N(CC(=O)Nc1ccc(S(=O)(=O)N2CCCC2)cc1)S(C)(=O)=O	1.3%
Cn1nnc(NCc2cc(Br)ccc2OCc2cccs2)n1	0.2%
CC(NC(=O)CCC1COc2ccccc2O1)c1ccccc1 (stereo not drawn)	0.9%
O=c1c(O)c(-c2cccs2)oc2ccccc12	?
Cc1cc(OCC(=O)Nc2ccc(Cl)cc2)ccc1C(C)C	1.9%

More records:
structure	Mtb H37Rv
COC(=O)c1sc2cc(NC(=S)NCCc3ccc(OC)c(OC)c3)ccc2c1Cl	46.1%
COc1cccc(Nc2ccccc2C)c1	i
CN(C)CCCOc1ccc(Cl)cc1Br	i
CCN(CC)C(=O)Cn1c(C)c(C=O)c2ccccc21	i
O=C(Nc1ccc(CN2CCOCC2)cc1)c1ccc2c(c1)OCO2	6.7%
CC(C)Oc1ccccc1NC(=O)CSc1nc2ccccc2c(=O)n1Cc1ccccc1	i
Cc1cc(Cl)ccc1OC(C)C(=O)Nc1cc(C(=O)O)cc(C(=O)O)c1 (stereo not drawn)	i
O=C(Nc1ccc(F)cc1F)c1c(F)c(F)c(F)c(F)c1F	i
CCOC(=O)c1cc2cc3ccc(C)cc3nc2s1	?
O=C(c1ccccc1)c1cn(CC(=O)N2CCOCC2)c2ccccc12	i
CC(=O)N1C(c2ccccc2)CC(=O)OC1c1ccc2c(c1)OCO2 (stereo not drawn)	2.1%
COc1ccc(OC)c(NC(=O)CSCc2c(Cl)cccc2Cl)c1	1.4%
CCCC(=O)N1CCN(c2ccc(NC(=S)NC(=O)c3cccc(C)c3)cc2)CC1	i
CC(NCc1ccccc1)c1cc(Cl)ccc1O (stereo not drawn)	3.1%
CC(=O)Nc1ccc(C(=O)NC(C)c2ccccc2)cc1 (stereo not drawn)	i

The list goes on.
structure	Mtb H37Rv
O=C(Nc1ccc2c(c1)OCO2)N1CCOCC1	i
CCOC(=O)C1CCN(C(=O)C2CC(=O)N(c3ccc(C)cc3)C2)CC1 (stereo not drawn)	i
Cc1nnc(Nc2ccc(OCC(=O)N3CCN(c4ccccc4)CC3)cc2)c2ccccc12	2.0%
COc1ccc(-c2ccc(/C=C3/SC(=S)NC3=O)o2)cc1	?
CN(C)c1ncnc2sc3c(c12)CCC3	i
COc1ccccc1N1CCN(C2CCN(Cc3ccccc3)CC2)CC1	5.8%
CNc1ccc(OC)cc1-n1cnc(-c2ccc([N+](=O)[O-])cc2)c1	2.9%
CCOC(=O)c1ccc(NC(=O)CN(c2cc(C)ccc2OC)S(=O)(=O)c2ccc(C)cc2)cc1	i
CN1CCN(S(=O)(=O)c2ccc(F)c(Cl)c2)CC1	i
Cc1ccc(S(=O)(=O)N(CC(=O)Nc2cccc(C)c2)Cc2ccccc2F)cc1	4.9%
CC(C)(C)c1ccc(NC(=O)Nc2nnc(/C=C/c3ccccc3)s2)cc1	i
O=C(CSc1nnc(-c2ccccn2)n1-c1ccccc1)Nc1ccc2c(c1)OCCO2	i
Cc1ccc(CN(c2ccc(C(=O)NC3CC4CCC3C4)cc2)S(C)(=O)=O)cc1 (stereo not drawn)	i
Cc1cccc(OCc2nnc(SCC(=O)Nc3nc4ccccc4s3)o2)c1	i
COc1cc(C=O)ccc1OCC(=O)Nc1cc(F)ccc1C	i

Gathered by group: the entries above with a COOH group (three)
structure	Mtb H37Rv
Cc1cc(Cl)c(S(=O)(=O)NC(C(=O)O)C(C)C)cc1OCC(N)=O (stereo not drawn)	i
CCC(C)C(NC(=O)c1ccccc1NC(=O)c1ccccc1)C(=O)O (stereo not drawn)	i
Cc1cc(Cl)ccc1OC(C)C(=O)Nc1cc(C(=O)O)cc(C(=O)O)c1 (stereo not drawn)	i

Random excerpt: 3 records from the list, in no set order.
structure	Mtb H37Rv
Cc1ccc(CN(c2ccc(C(=O)NC3CC4CCC3C4)cc2)S(C)(=O)=O)cc1 (stereo not drawn)	i
CN1CCN(S(=O)(=O)c2ccc(F)c(Cl)c2)CC1	i
CC(C)(C)c1ccc(NC(=O)Nc2nnc(/C=C/c3ccccc3)s2)cc1	i

(list continues)
structure	Mtb H37Rv
Cc1c(C)c2ccc(O)c(CN(C)C)c2oc1=O	i
Cc1c(Cl)cccc1NC(=S)Nc1ccccn1	i
COc1nc(NCc2ccccc2)nc(NC2CCCCC2)n1	0.2%
O=C(NC(=S)Nc1cccc(Cl)c1Cl)c1ccco1	i
Cc1ccc(S(=O)(=O)N(CC(=O)NC2CCCCCC2)c2ccccc2F)cc1	i
Cc1ccccc1-c1nnc(SCC(=O)Nc2ccccc2C(C)C)n1C	0.5%
O=C(Nc1ccc2c(c1)OCCO2)c1ccc(Br)s1	i
CC1=CC(C)(C)N2C(=O)C3(C(C#N)=C(N)Oc4c3c(=O)oc3ccccc43)c3cc(C)cc1c32 (stereo not drawn)	27.1%
CN(C)C(=O)c1ccc(NC(=O)c2ccccc2-c2ccccc2)cc1	i
CCCOc1ccc(N2C(=O)CC(Nc3ccc(CCO)cc3)C2=O)cc1 (stereo not drawn)	i
O=C(c1ccccc1F)N1CCN(C2CCN(Cc3ccccc3)CC2)CC1	i
CCCN1C(=O)C(O)(CC(=O)c2ccc(Cl)s2)c2ccccc21 (stereo not drawn)	i
CC(C)c1ccc(NC(=O)CSc2nnc(N)s2)cc1	i
C/C(=C\C(=S)Nc1ccccc1)Nc1ccc(Br)cc1	2.9%
CCOc1ccc(NC(=O)CN(c2cccc([N+](=O)[O-])c2)S(C)(=O)=O)cc1	i

Remaining list, next part:
structure	Mtb H37Rv
COc1ccc([N+](=O)[O-])cc1NC(=O)C(C(C)C)N1C(=O)c2ccccc2C1=O (stereo not drawn)	i
Cc1ccc(CN2CCN(Cc3ccc(F)cc3)CC2)cc1	i
Cc1ccc(S(=O)(=O)NC2CCCC(C(=O)Oc3ccc4c(c3)oc(=O)c3ccccc34)C2)cc1 (stereo not drawn)	6.4%
O=C(c1cccc(C(F)(F)F)c1)N1CCN(C2CCCCC2)CC1	i
CC(=O)c1cc(C)ccc1OC(=O)c1ccc([N+](=O)[O-])cc1	i
O=C(NCCCc1ccccc1)C(=O)Nc1nccs1	i
COc1ccc(NC(=O)CN(C2CCCCC2)S(=O)(=O)c2ccc(F)cc2)c(OC)c1	i
Nn1cnc2scc(-c3ccccc3)c2c1=O	i
O=C1CC(c2ccco2)Cc2nc(NCc3ccccc3)ncc21 (stereo not drawn)	i
O=C(O)C1CC=CCC1C(=O)NCc1ccccc1 (stereo not drawn)	5.1%
CN(C)CC(=O)N1c2ccccc2CCc2ccc(N)cc21	i
Cc1ccc(C)c(OCC(=O)Nc2ccc(S(N)(=O)=O)cc2)c1C	i
CCC(=O)NCCN1CCN(C(=O)CC)CC1	i
CCOCCCNS(=O)(=O)c1ccc(NC(C)=O)cc1	i
COCCNC(=O)COc1ccc(Br)cc1C	i

(listing goes on)
structure	Mtb H37Rv
CCOc1ccc(NC(=S)NS(=O)(=O)c2cc(Br)ccc2OCC)cc1	i
CC1CN(CCCOc2ccc([N+](=O)[O-])cc2)CC(C)O1 (stereo not drawn)	i
C=CCn1c(SCC(=O)Nc2ccc(F)cc2)nc2ccccc2c1=O	i
Cc1ccc(C)c(NC(=O)CSc2nnnn2C)c1	i
O=Cc1ccc(OCc2ccccn2)cc1	i
COc1ccc(C(=O)NCc2n[nH]c(=S)n2C)cc1OC	i
Cc1ccc(C(=O)N2CCN(c3ccc(NC(=O)COc4ccccc4Cl)cc3)CC2)cc1	6.08µg/mL*
O=C(Nc1ccc(-c2noc(-c3cccs3)n2)cc1)c1ccco1	i
S=C(NCCN1CCOCC1)Nc1ccc(Nc2ccccc2)cc1	i
CCCc1c(O)nc(SCc2ccccc2)[nH]c1=O	i
Cc1ccc(NC(=O)CCc2nnc(SCC(=O)Nc3ccccc3C)n2C)cc1Cl	i
CCOc1ccc(-n2c(SCC(=O)OC)nnc2-c2ccccc2)cc1	?
Clc1ccc2oc(-c3ccccc3Cl)nc2c1	1.1%
Cc1ccc(C)n1NC(=O)c1ccccc1	i
COc1ccc(-c2csc(NC(=S)NC(=O)CC34CC5CC(CC(C5)C3)C4)n2)cc1OC	i

Individual results from the list.
Reading of Cc1cccc(Nc2nc(-c3sc(N)nc3C)cs2)n1 in Mtb H37Rv: 39.0%
Reading of COc1ccccc1N1CCN(C2CCN(Cc3ccccc3)CC2)CC1 in Mtb H37Rv: 5.8%

More compounds:
structure	Mtb H37Rv
CCc1ccc(C(=O)CC2(O)C(=O)Nc3c(C)ccc(Cl)c32)cc1 (stereo not drawn)	i
O=C(O)C1CC(O)CN1S(=O)(=O)c1ccc([N+](=O)[O-])cc1 (stereo not drawn)	i
O=C(CC1CCCCC1)Nc1ccc(F)c(Cl)c1	i
Cc1ccc(C(=O)Nc2ccccc2C(N)=O)cc1I	i
Cc1cc(=O)oc2cc(OCC(=O)O)ccc12	i
CC(NC(=O)c1ccccc1NC(=O)c1ccc(CN2CCOCC2)cc1)c1ccccc1 (stereo not drawn)	i
CCOC(=O)c1sc(NC(=O)c2ccc([N+](=O)[O-])s2)nc1C	i
CCOC(=O)C(C)Oc1ccccc1C1NC(=S)NC(C)=C1C(=O)Nc1ccccc1Cl (stereo not drawn)	i
Cc1ccccc1-c1nc(Cc2ccc(Cl)cc2)no1	i
O=S(=O)(c1ccc(Cl)s1)N1CCN(c2ncccn2)CC1	i
CCCC1=NN(C(=O)C(O)c2ccccc2)C(O)(C(F)(F)F)C1 (stereo not drawn)	i
CCOc1cc(C(=O)OC)cc(OCC)c1OCC	i
CN(c1ccc(C(=O)NCc2ccccc2)cc1)S(C)(=O)=O	i
CCC(Sc1nnnn1-c1ccccc1)C(=O)Nc1ccccc1OC (stereo not drawn)	i
COc1ccc2c(c1)C(C)CC(C)(C)N2C(=O)CSc1nnc(C)s1 (stereo not drawn)	i
